Screening data (PubChem)
NPYLR7 agonist: activates Aedes aegypti NPYLR7 receptor. HEK293T NPYLR7/Galpha15, GCaMP6s calcium fluorescence. activation, % at 10 µM. 270,000 compounds, 0.15% hits. AID 1259423; in the data active means activation above about 40%;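 further: 0% = vehicle and 100% = reference agonist at the receptor; some compounds past the cut are filed as inactive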
NPYLR7 agonist max-min: second read-out of NPYLR7 agonist, no call of its own (marks repeat the call); activation, %; measured here: Max-Min RFU normalised activation; some inactives read as strong as hits;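 span of the calcium signal over five minutes; 0% = vehicle and 100% = native peptide agonist; compound fluorescence can raise it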
Starred values were filed as active, the others as inactive; & = joins results of further samples.

SMILES	NPYLR7 agonist	NPYLR7 agonist max-min
CCO[C@H]1[C@H](NC(=O)c2ccco2)c2ccccc2C12CCN(C(=O)c1cn3c(C)cccc3n1)CC2	1	-1
O=C(c1cccs1)N(Cc1cccc(Cl)c1)CC1CC(c2cccc(F)c2)=NO1 (centres undefined)	24	30
CNC(=O)CC(C)N(C)C(=O)c1cccc(-c2ccccc2)c1 (centres undefined)	-5	-6
Cc1ccc(NC(=O)Nc2cnn(C(C)(C)C)c2)c(Cl)c1	8	7
Cc1ccc[n+](CC(=O)c2ccc(N3C(=O)c4ccccc4C3=O)cc2)c1	-9	-16
O=C(NC1CC1)C(Oc1cc(Cl)ccc1Cl)c1ccc(F)cc1 (centres undefined)	6	6
COc1ccc(N2C(=O)/C(=C/c3ccc(N(C)C)c([N+](=O)[O-])c3)C(=O)NC2=S)cc1	-2	-4
O=C1N(Cc2ccc(F)cc2)CCCC12CCN(CCc1ccccc1)C2 (centres undefined)	13	3
COc1cc(OC)cc(N2CCN(C(=O)c3cccs3)C(C)C2=O)c1 (centres undefined)	-3	22
O=C(c1cc2c(s1)CCCC2)N1CCN(C(=O)C2CCCO2)CC1 (centres undefined)	-2	4
Clc1ccc(OCc2nnc3n2N=C2CCCCC2S3)cc1 (centres undefined)	11&-5	14&-8
COc1ccccc1CNc1nc(NCCNC(C)=O)c2sccc2n1	3	0
CCc1nc2n(n1)C(=O)C(C(c1cccs1)N1CCOCC1)S2 (centres undefined)	-4	-11
O=C(COc1ccc(C2SCCCS2)cc1)Nc1ccc2c(c1)NC(=O)CO2	9	7
COc1ccc(CNC(=O)Cn2c(C)csc2=O)cn1	12	5
Cc1ccc(C(=O)Nc2sc(C(=O)N3CCCCC3)c(C)c2C#N)cc1	-13	-19
CSc1ccc(CN2CCC2(C)C(=O)Nc2ccc(C)c(O)c2)cc1 (centres undefined)	9	4
Cn1c(=O)n(CCN2CCCCC2)c(=O)c2c1nc1n2CCN1c1ccc(Oc2ccccc2)cc1	0	7
COc1cc(=O)n(-c2ccccc2)nc1C(=O)NC(C)(C)C	3	1
CC(NC(=O)N1CC2C3CCC(O3)C2C1)c1cccc(Cl)c1 (centres undefined)	-21&-6	-26&-6
Cc1cccc(-c2noc(CN(C)Cc3cn[nH]c3-c3ccc(F)cc3)n2)c1	1	12
CCOc1ccc(C(C)NC(=O)c2ccccc2S(C)(=O)=O)cc1 (centres undefined)	0	-4
CC1(C)CC2=NN(c3ccccc3)P(=S)(OCCc3ccccn3)C2=C(N2CCCCC2)C1 (centres undefined)	31	34
CN(C1=NC(=O)/C(=C/c2cc(Cl)ccc2OCC(=O)O)S1)c1ccc(O)cc1	0	-2
CCOC(=O)N1CCN(Cc2nc3c(c(=O)[nH]c(=O)n3C)n2Cc2ccccc2C)CC1	10	3

(next part)
SMILES	NPYLR7 agonist	NPYLR7 agonist max-min
O=C(c1ccccc1CCc1ccccc1)N1CCN(c2ncccn2)CC1	1	1
Cc1cccc(NC(=O)c2ccc3nn(CC(=O)N4CCc5ccccc5C4)c(=O)n3c2)c1	5	8
Cc1ccc(OCc2nc(C(=O)NCc3cccnc3)cs2)c(C)c1	4	13
C=CCn1cc(CN2CCN(C)C3(CCN(C(=O)C(C)(C)C)CC3)C2)cn1	0	-2
CC(C)C(=O)Nc1cccc(F)c1C(=O)NC1CCC(O)CC1 (centres undefined)	-5	229
COC(=O)C1=C(C)N(C)C(=O)NC1c1ccc(O)c(O)c1 (centres undefined)	43	24
O=P1(NNC(=S)Nc2ccccc2)C=C(c2ccccc2)OC(c2ccccc2)=C1	3	1
N#Cc1ccccc1NC(=O)c1cc(N2CCNC2=O)ccc1Cl	4	3
CCn1c(C2CCCN(c3nc(C)cc(C)n3)C2)nn(CCN(C)C)c1=O (centres undefined)	-3	-7
O=C(COCc1ccccc1)NCCNc1nc(-c2ccco2)nc2ccccc12	-2	8
O=C(NCc1ccc(Cl)cc1)C1CCCN(S(=O)(=O)c2cccs2)C1 (centres undefined)	0	-1
C(#CCSc1nc2ccccc2[nH]1)CSc1nc2ccccc2[nH]1	0	-1
CCc1nc2ccc(C(=O)NCCNC(C)=O)cn2c1N(CC)C(C)=O	0	-7
COc1ccc(NC(=O)c2cnc(N3CCN(C4CCCCC4)CC3)nc2N)cc1	3	2
CCSc1nc(CC(=O)N(C)C(C)c2ccon2)cs1 (centres undefined)	23	15
CC(C)C(CNc1ccc(S(N)(=O)=O)cc1[N+](=O)[O-])N1CCCCCC1 (centres undefined)	6	4
Cc1ccc(C)c(NC(=O)CN(C)C(=O)c2ccc3nncn3c2)c1	13	5
Cc1ccc(C(=O)N2N=C3CCCCC3C2(O)C(F)(F)F)c(Cl)c1 (centres undefined)	-4	-3
CCOc1ccccc1-n1nnc(C(=O)NCC2CCCO2)c1C (centres undefined)	4	9
Cc1nc2c(c(C(F)(F)F)n1)CC(C(=O)NC(C)CS(C)(=O)=O)CC2 (centres undefined)	-2	18
CCCc1cc(=O)[nH]c(-n2nc(C)cc2NC(=O)c2cccc(F)c2)n1	10	5
Cc1cccc(NC(=O)CSc2ncnc3sc4c(c23)CCC4)c1C	-5	-11
Cc1ccc(Cn2c(=O)c3c(nc4n(CCCN(C)C)c(C)cn34)n(C)c2=O)cc1	-3	28
CCc1nccn1CCC(=O)N1CC[C@H](CO)[C@H](O)C1	21	12
COc1ccc(N2CC(c3nnc(SCC(=O)c4ccc(Cl)cc4)o3)CC2=O)cc1Cl (centres undefined)	3	7

Filtered by structure: those above containing a furan ring, fused or not.
SMILES	NPYLR7 agonist	NPYLR7 agonist max-min
CCO[C@H]1[C@H](NC(=O)c2ccco2)c2ccccc2C12CCN(C(=O)c1cn3c(C)cccc3n1)CC2	1	-1
O=C(COCc1ccccc1)NCCNc1nc(-c2ccco2)nc2ccccc12	-2	8

Continuation:
SMILES	NPYLR7 agonist	NPYLR7 agonist max-min
O=C(N[C@H]1C[C@H]2C(=O)NCC(=O)N2C1)c1cccc(Cn2cccn2)c1	-4	-6
CCS(=O)(=O)c1ccc(CC(=O)N(Cc2ccccn2)c2nc3c(OC)ccc(C)c3s2)cc1	-3	-10
CCOC(=O)CC(=O)CSc1ccc2nnc(-c3ccc(OCC)cc3)n2n1	14	12
COc1cc(CN2CCC(C(=O)NC(c3ccc4ccccc4n3)c3cccs3)CC2)cc(OC)c1 (centres undefined)	1	2
c1ccc(-c2nc3c(s2)CCCC3)c(CN2CCOCC2)c1	2	23
CC(C)C(NCC(=O)Nc1ccccc1C(N)=O)c1ccccc1 (centres undefined)	8	5
Cc1cc(C)c2c(C)c(C(=O)NCC(C)(C)N(C)C)sc2n1	2	0
O=C(c1cc(F)ccc1F)N1CCN(c2nccc(-c3ccc(Oc4ccccc4)cc3)n2)CC1	4	2
CCOC(=O)C1(CCOc2ccccc2)CCCN(C(=O)c2ccc(OC)o2)C1 (centres undefined)	11	7
CN(C)c1ccc(NC2=C([N+](=O)[O-])CS(=O)(=O)C2)cc1	0	1
Fc1ccc(Oc2cc(N3CCCCCC3)ncn2)c(Cl)c1	-4	6
Cc1cc(C)cc(COc2coc(CN3CCN(C(=O)CC(C)(C)C)CC3)cc2=O)c1	4	-1
CCC(CC)C(CN)N1CCOCC1 (centres undefined)	-2	-2
COc1ccccc1S(=O)(=O)Nc1ccccc1CN(C)C(=O)OC(C)(C)C	-2	-1
Cc1ccc(F)c(NC(=O)N2CCN(C(c3ccccc3)c3ccc(Cl)cc3)CC2)c1 (centres undefined)	24	21
Cc1ccc(-c2nc(C=Nc3ccc(OC(F)(F)F)cc3)c(O)o2)cc1	0	1
C=CCn1c(SCc2ccc3nonc3c2)nnc1-c1ccco1	-1	-2
CC(=O)NCCNC(=O)C1(C)CCN1Cc1csc2ccccc12 (centres undefined)	-2	-6
NC(=O)CN(C(=O)C1CCCC1)c1ccccc1	2	1
COCCN(Cc1cccs1)C(=O)c1coc2c1C(=O)CCC2	1	1
O=C(NCC(c1ccccn1)N1CCOCC1)c1cn(Cc2ccc(Cl)cc2)nn1 (centres undefined)	3	0
CCc1nc2c(OCC(=O)C(C)(C)C)cccn2c1N(C)C(=O)Nc1ccccc1OC	-6	-13
CN1CCCCC1CCN1c2ccccc2Sc2ccc(S(C)=O)cc21 (centres undefined)	-10&4&-3	-15&1&-4
CCN(CC)c1ncccc1CNC(=O)COC	17	8
CN(C)c1cccc(-c2cc(Nc3ccc4c(c3)OCCO4)ncn2)c1	2	4

26 consecutive compounds from above, for reference:
SMILES	NPYLR7 agonist	NPYLR7 agonist max-min
COc1ccc(N2CC(c3nnc(SCC(=O)c4ccc(Cl)cc4)o3)CC2=O)cc1Cl (centres undefined)	3	7
O=C(N[C@H]1C[C@H]2C(=O)NCC(=O)N2C1)c1cccc(Cn2cccn2)c1	-4	-6
CCS(=O)(=O)c1ccc(CC(=O)N(Cc2ccccn2)c2nc3c(OC)ccc(C)c3s2)cc1	-3	-10
CCOC(=O)CC(=O)CSc1ccc2nnc(-c3ccc(OCC)cc3)n2n1	14	12
COc1cc(CN2CCC(C(=O)NC(c3ccc4ccccc4n3)c3cccs3)CC2)cc(OC)c1 (centres undefined)	1	2
c1ccc(-c2nc3c(s2)CCCC3)c(CN2CCOCC2)c1	2	23
CC(C)C(NCC(=O)Nc1ccccc1C(N)=O)c1ccccc1 (centres undefined)	8	5
Cc1cc(C)c2c(C)c(C(=O)NCC(C)(C)N(C)C)sc2n1	2	0
O=C(c1cc(F)ccc1F)N1CCN(c2nccc(-c3ccc(Oc4ccccc4)cc3)n2)CC1	4	2
CCOC(=O)C1(CCOc2ccccc2)CCCN(C(=O)c2ccc(OC)o2)C1 (centres undefined)	11	7
CN(C)c1ccc(NC2=C([N+](=O)[O-])CS(=O)(=O)C2)cc1	0	1
Fc1ccc(Oc2cc(N3CCCCCC3)ncn2)c(Cl)c1	-4	6
Cc1cc(C)cc(COc2coc(CN3CCN(C(=O)CC(C)(C)C)CC3)cc2=O)c1	4	-1
CCC(CC)C(CN)N1CCOCC1 (centres undefined)	-2	-2
COc1ccccc1S(=O)(=O)Nc1ccccc1CN(C)C(=O)OC(C)(C)C	-2	-1
Cc1ccc(F)c(NC(=O)N2CCN(C(c3ccccc3)c3ccc(Cl)cc3)CC2)c1 (centres undefined)	24	21
Cc1ccc(-c2nc(C=Nc3ccc(OC(F)(F)F)cc3)c(O)o2)cc1	0	1
C=CCn1c(SCc2ccc3nonc3c2)nnc1-c1ccco1	-1	-2
CC(=O)NCCNC(=O)C1(C)CCN1Cc1csc2ccccc12 (centres undefined)	-2	-6
NC(=O)CN(C(=O)C1CCCC1)c1ccccc1	2	1
COCCN(Cc1cccs1)C(=O)c1coc2c1C(=O)CCC2	1	1
O=C(NCC(c1ccccn1)N1CCOCC1)c1cn(Cc2ccc(Cl)cc2)nn1 (centres undefined)	3	0
CCc1nc2c(OCC(=O)C(C)(C)C)cccn2c1N(C)C(=O)Nc1ccccc1OC	-6	-13
CN1CCCCC1CCN1c2ccccc2Sc2ccc(S(C)=O)cc21 (centres undefined)	-10&4&-3	-15&1&-4
CCN(CC)c1ncccc1CNC(=O)COC	17	8
CN(C)c1cccc(-c2cc(Nc3ccc4c(c3)OCCO4)ncn2)c1	2	4

(listing goes on)
SMILES	NPYLR7 agonist	NPYLR7 agonist max-min
COc1cccc(C(CC(=O)NCCCN2CCOCC2)c2c[nH]c3ccccc23)c1 (centres undefined)	2	3
O=C(CC(c1ccc(OCc2ccccc2)cc1)c1c[nH]c2ccccc12)NCc1ccncc1 (centres undefined)	3	13
O=C(CCn1ccc(=O)[nH]c1=O)N(Cc1ccsc1)CC1CCCO1 (centres undefined)	-7	-9
Cc1cnc(SCC2CCCO2)nc1C1CCCN(C(=O)CSc2ccccc2)C1 (centres undefined)	-1	-7
CCc1ncc(CN2CCN(C(=O)c3cccc(OC)c3)CC2)cn1	3	-2
CCOC(=O)CN1CCc2ccccc2N(CC(O)COc2ccc(OC)cc2)CCC1=O (centres undefined)	13	23
CCCC(=O)N1CCC1(C)C(=O)NS(=O)(=O)c1ccc(Cl)s1 (centres undefined)	1	-2
O=C(c1cncn1-c1cccc(-c2cccc3c2sc2ccccc23)c1)N1CCC1	2	-1
COc1ccc(CNC(=O)c2cccnc2N2CCN(C(=O)c3sccc3Cl)CC2)cc1	-5	-14
CCc1c(C(=O)NCCc2nc(-c3cccnc3)n[nH]2)[nH]c2ccccc12	2	-1
Cc1cc2oc(=O)cc(C)c2c(=O)[nH]1	4	2
O=C(NC(c1ccc(Cl)cc1)c1cnccn1)C1CCN(Cc2ccc3ccccc3n2)CC1 (centres undefined)	2	0
O=C(CCCc1ccc2c(c1)CC(=O)N2)NCc1ccc(Cl)nc1	-13	-16
CN(C)Cc1nnc(C(=O)N(C)CCC(O)c2ccccc2)o1 (centres undefined)	25	19
CCC(C(=O)Nc1ccccc1C1SCC(=O)N1c1ccccc1OC)c1ccccc1 (centres undefined)	3	13
CC(C)COc1nc(-c2ccc(F)cc2)n(-c2ccc(NC(=O)c3ccc([N+](=O)[O-])cc3)cc2)n1	6	13
C(=C\c1ccc(CSc2nnc(-c3cc(-c4ccccc4)nc4ccccc34)n2Cc2ccco2)cc1)/c1ccccc1	-7	-14

Some of the compounds tested; the hit share may differ from the screen's.
